# 2A StopGo: lowers the luciferase signal of an FMDV 2A StopGo reporter; human cells with a luciferase reporter of 2A StopGo recoding; control for the full effect not named in the record; Potency, µM (series often up to 57.9 µM), without a hit: top-dose signal change, negative = less light; hit rate 1.2% among 410,000; active = well fitted falling curve with a large enough effect; inconclusive = small, poorly fitted or top-dose-only effect; inactive = no such curve, though single readings can be large or run the other way; tested in HEK293T cells; also: % is scaled to controls: 0 for no effect and ±100 for the full control effect; nearly all actives have a fitted effect of over 45% in size; luciferase light after 4 h
# Lassa entry inh: inhibitors of Lassa virus binding or cell entry. Lassa virus pseudotype entry inhibition, cell reporter; control for the full effect not named in the record. Potency, µM (top dose mostly 37.9 µM), inactives show top-dose activity change, negative = inhibition, most hits filed as inhibitors. hit rate 1.2% among 300,000. AID 540256; active means well fitted inhibition curve with a large enough effect; inconclusive means small, poorly fitted or top-dose-only effect, or effect the other way; inactive means flat fitted curve, though single readings scatter; tested in HEK293 cells; also: % is scaled to controls: 0 for no effect and ±100 for the full control effect; nearly all actives have a fitted effect of over 50% in size; luciferase read-out
# SARS PLpro yeast: SARS-CoV PLP inhibition in yeast; hit rate 0.19% among 330,000; S. cerevisiae expressing SARS-CoV PLpro, growth rescue; control for the full effect not named in the record; Potency, µM (doses to about 32.9 µM), for inactives: top-dose activity, positive = growth rescue; active means well fitted rising curve with a large enough effect; inconclusive means small, poorly fitted or top-dose-only effect; inactive means no such curve, though single readings can be large or run the other way; also: 0% is about no effect; nearly all actives have a fitted effect of over 55% in size; growth read by luminescence after 48 h
# MARV entry inh: inhibitors of Marburg virus binding or cell entry; AID 540276; hit rate 1.8% among 300,000; Potency, µM (titrated, usually from 37.8 µM), for inactives: top-dose activity change, negative = inhibition, usual class: inhibitors; Marburg virus pseudotyped entry inhibition, cell reporter; control for the full effect not named in the record; about a third of the inactives were read at about 46 µM; active = well fitted inhibition curve with a large enough effect; inconclusive = small, poorly fitted or top-dose-only effect, or effect the other way; inactive = flat fitted curve, though single readings scatter; tested in HEK293 cells; about a fifth of its hits are not listed in these tables; also: % is scaled to controls: 0 for no effect and ±100 for the full control effect; luciferase read-out
# Cruzain inh Det: inhibitors of Trypanosoma cruzi cruzain with detergent. P25779. hit rate 0.43% among 200,000. purified cruzain, Z-FR-AMC fluorescence, 0.01% Triton. Potency, µM, without a hit: max response, negative = inhibition, most hits filed as inhibitors;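 also: plate controls were neutral wells for no effect and buffer without enzyme for full effect; nearly all actives have a fitted effect of over 40% in size; top concentration of the series not given in the record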
# Target sequence (P25779 123-467 limits assumed): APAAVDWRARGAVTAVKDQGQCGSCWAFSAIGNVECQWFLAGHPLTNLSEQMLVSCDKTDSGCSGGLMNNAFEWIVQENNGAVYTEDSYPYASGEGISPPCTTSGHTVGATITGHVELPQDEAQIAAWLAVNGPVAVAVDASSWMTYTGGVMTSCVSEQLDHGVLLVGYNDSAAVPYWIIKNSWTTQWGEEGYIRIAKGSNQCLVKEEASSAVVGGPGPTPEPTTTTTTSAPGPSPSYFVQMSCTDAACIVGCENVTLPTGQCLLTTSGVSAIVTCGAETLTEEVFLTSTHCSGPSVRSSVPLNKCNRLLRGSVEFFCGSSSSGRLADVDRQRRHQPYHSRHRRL
#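 15 min RT preincubation of 1.5 nM cruzain with compound, then 2 uM Z-FR-AMC added; kinetic AMC fluorescence, 60 s delta. Triton X-100 0.01%, pH 5.5.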
# Cruzain inh noDet: cruzain (T. cruzi) inhibition without detergent; P25779; purified cruzain, Z-FR-AMC fluorescence, no detergent; Potency, µM, without a hit: max response, negative = inhibition, hits mostly inhibitors; hit rate 2.3% among 200,000; AID 1476;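 also: plate controls were enzyme without inhibitor for no effect and buffer without enzyme for full effect; nearly all actives have a fitted effect of over 40% in size; top concentration of the series not given in the record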
#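 Purified cruzain at 1.5 nM, pre-incubated 15 min with compound at room temperature in 100 mM sodium acetate pH 5.5, 5 mM DTT, 0.00005% Triton X-100. Reaction started with 2 uM Z-FR-AMC; AMC fluorescence increase over 60 s gives rate.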
# RE007 growth inh: less growth of the S. pombe RE007 Vpr strain; AID 651644; S. pombe RE007 Vpr strain, BacTiter-Glo ATP luminescence, 24 h; control for the full effect not named in the record; hit rate 0.21% among 360,000; Potency, µM (highest dose often 92.2 µM), inactives show at the top dose activity change, negative = less growth; active = well fitted falling curve with a large enough effect; inconclusive = small, poorly fitted or top-dose-only effect; inactive = no such curve, though single readings can be large or run the other way;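 also: % is scaled to controls: 0 for no effect and ±100 for the full control effect; nearly all actives have a fitted effect of over 50% in size; the assay follows cell death caused by Vpr and the record does not say whether a fall means rescue or toxicity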
#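 Fission yeast strain RE007, carrying one chromosomally integrated HIV-1 vpr copy, was seeded at OD 0.01 in PMG+AL medium with 23 nL pinned compound. After 24 h at 30 °C and 99% humidity, viability was read by BacTiter-Glo luminescence.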
# NS1 function inh: influenza NS1 inhibition; hit rate 0.4% among 270,000; Potency, µM (highest dose often 46.1 µM), for inactives: top-dose activity, positive = more growth; S. cerevisiae slowed by influenza A NS1, growth recovery by OD600; active means well fitted rising curve with a large enough effect; inconclusive means small, poorly fitted or top-dose-only effect; inactive means no such curve, though single readings can be large or run the other way; also: nearly all actives have a fitted effect of over 50% in size
#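 Growth recovery, yeast-based: influenza A NS1 expressed in S. cerevisiae causes slow growth, and suppressors are detected by OD600. The parent strain without NS1 is used as positive control.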
# Numbers without * were called inactive; ? = inconclusive; · = no result given; [ ] = dose if it differs, or a comment. Unless noted, calls follow the shape of the dose curve; as a rule, active = well fitted curve in the direction sought with a large enough effect; inconclusive = small, poorly fitted or top-dose-only effect, or another doubt; inactive = no such curve, though single readings can be large; an effect the other way counts as inactive or inconclusive. Potency is read from the fitted curve at half-maximal effect. Rows are unselected. About 4.5% of those tested had a hit in this group.
SMILES,2A StopGo,Lassa entry inh,SARS PLpro yeast,MARV entry inh,Cruzain inh Det,Cruzain inh noDet,RE007 growth inh,NS1 function inh
CCN(CC)C(=O)CSc1nc2c(sc(=S)n2-c2ccccc2)c(=O)n1Cc1ccco1,?,?,2.2%,9.2µM*,-1.8%,17.9%,-2.5%,17.7%
O=C(c1ccccc1NS(=O)(=O)c1ccc(Br)s1)N1CCCC1,-8.3%,-11.3%,-1.2%,4.7%,1.8%,0.1%,12.2%,-3.5%
CCCCCCC(=O)N/N=C1\CCCc2ccccc21,-5.7%,-3.2%,6.2%,-0.9%,-8.9%,14.8%,5.1%,-15.2%
NC(=O)c1ccc(OCc2ccccc2)nc1,59.8%[activator],19.7%,·,?,·,·,-3.0%,·
CC(C)C1C(=O)CC(c2ccccc2)NC1c1ccccc1 (configuration not stated),0.6%,·,1.3%,·,·,·,-1.5%,8.3%
COc1ccccc1N1CCN(C(=O)C2CCN(S(=O)(=O)Cc3ccccc3)CC2)CC1,?,-4.4%[46.1 µM],·,0.6%[46.1 µM],-7.3%,?,·,·
CCO[C@H]1OC(C(=O)N2CCN(C)CC2)=C[C@@H](c2ccc(C(F)(F)F)cc2)[C@@H]1CCCO,-19.4%,·,-1.0%,·,·,·,7.1%,2.6%
COc1cc(NS(=O)(=O)c2ccc(NC(=O)COc3ccc(C)cc3C)cc2)nc(OC)n1,13.0%,5.2%,-2.1%,10.1%,-23.4%,?,-12.4%,25.7%
O=S(=O)(Cc1ccc(Cl)cc1)Nc1ccc(Cl)cn1,2.9%,10.4%,-2.6%,?,·,·,4.0%,9.6%
c1ccc(-c2csc(-c3cccnc3)n2)cc1,5.4%,14.6%,0.2%,-2.3%[46.1 µM],·,·,0.2%,-40.1%
CCOc1cc(N2CCOCC2)c(OCC)cc1NC(=O)CN1C(=O)NC(Cc2ccccc2)C1=O (configuration not stated),-19.8%,-8.4%,3.8%,19.6%,-1.7%,27.2%,-1.4%,2.5%
COc1ccccc1-c1cc(C(=O)NC2CCCC2)no1,26.0%,?,-0.9%,?,·,·,2.2%,-36.0%
O=C1CCC(C2CCc3cc(O)ccc3C2)C1 (configuration not stated),5.1%,9.0%,·,0.8%,·,·,55.8%,·
CC(C)(C)c1ccc(NC(=O)Nc2ccc(OCC(=O)N3CCOCC3)cc2)cc1,-5.1%,?,-3.6%,0.1%[46.1 µM],·,·,72.7%,·
CCCc1nnc(SCC(=O)NC2CC2)n1C,-25.4%,1.0%,-1.5%,8.0%[46.1 µM],·,·,-3.1%,-2.5%
C#CCNC(=O)C1=C[C@@H](c2cn(C(C)=O)c3ccccc23)C[C@@H](OCCCCO)O1,-3.3%,·,-1.5%,·,·,·,6.6%,3.0%
COc1ccc(CN2CCC(C(=O)NCCc3ccc(OC)c(OC)c3)CC2)c(OC)c1,-20.1%,-0.6%,8.6%,?,3.2%,-3.7%,7.4%,-7.8%
O=c1[nH]c(Nc2ccccc2)cc2ccccc12,-3.6%,-2.3%,-33.1%,11.7%,-20.5%,?,?,-141.3%
COc1ccc(N(CC(=O)Nc2cccc(C(C)=O)c2)S(C)(=O)=O)cc1OC,-4.7%,13.4%,3.8%,-8.8%,-0.4%,-2.3%,-5.3%,-4.7%
COc1ccc(NC(=O)Cn2cc(S(=O)(=O)Cc3ccccc3)c3ccccc32)c(OC)c1,-0.5%,-0.3%,4.9%,8.4%,-7.4%,-15.0%,-5.0%,18.8%
Cc1ccc(NC(=O)COC(=O)c2nn(-c3ccc(Cl)cc3)cc2O)cc1,88.2%[activator],13.7%,1.4%,3.5%,·,·,-10.2%,·
Cc1ccc(CNC(=O)C2CCC(=O)N(CCc3ccc(Cl)cc3)C2)cc1 (configuration not stated),5.5%,14.4%,2.5%,24.9%,·,·,21.4%,-11.8%
CCc1cccc(OCC(=O)Nc2ccc(C(=O)O)cc2NC(=O)COc2cccc(CC)c2)c1,7.9%,-0.6%[46.1 µM],-5.0%,-2.1%[46.1 µM],·,·,16.0%,-33.0%
CCc1ccc(-c2nc(-c3cc4ccccc4oc3=O)sc2C)cc1,-5.4%,-0.7%[46.1 µM],·,·,2.2%,?,·,·
c1cncc(-c2cccnc2)c1,-8.6%,-0.2%,-0.8%,?,3.9%,-3.2%,11.9%,-9.2%
# Next part:
SMILES,2A StopGo,Lassa entry inh,SARS PLpro yeast,MARV entry inh,Cruzain inh Det,Cruzain inh noDet,RE007 growth inh,NS1 function inh
CCOc1ccc2c(c1)C(=O)C(=O)N2CC1COc2ccccc2O1 (configuration not stated),?,·,-2.0%,·,·,·,0.0%,-0.3%
CC(C)C(=O)Nc1cccc(C(=O)Nc2cc([N+](=O)[O-])ccc2Cl)c1,-9.2%,·,-1.4%,·,·,·,6.4%,-6.6%
C=CCN1C=C2C(=O)C(C)(OC(=O)CCC(=O)OC)C(=O)C=C2C=C1C1CC1 (configuration not stated),-22.9%,·,-1.0%,·,·,·,-3.6%,3.2%
Cc1cccc(N2CCN(c3nc4ccccc4c4nnc(C)n34)CC2)c1C,?,?,·,-13.5%[46.1 µM],-1.3%,-6.9%,·,·
CCC(=O)Nc1ccc(/C(C)=N/NC(=O)c2c(-c3ccccc3Cl)noc2C)cc1,-11.9%,-2.1%,3.6%,23.8%,-5.5%,1.7%,-1.2%,0.6%
COc1ccc(C2=NO[C@@H]3[C@@H]4C[C@@H]([C@H]5C(=O)N(c6ccc7c(c6)OCO7)C(=O)[C@@H]45)[C@H]23)cc1OC,-6.8%,2.6%,2.6%,?,-4.6%,?,-1.8%,9.5%
COc1ccc(/C=C/C(=O)OCC(=O)c2c(C)[nH]c3ccccc23)cc1OC,-16.0%,-0.2%,14.2%,14.5%,-11.7%,?,-28.5%,-9.7%
Cc1ccc(-n2c(SCC(=O)Nc3ccc4cn[nH]c4c3)nnc2-c2ccco2)cc1,-2.4%,?,1.4%,?,-0.1%,-19.8%,0.7%,-67.6%
CCN(CC)Cc1ccc(OC)c(Cl)c1,4.5%,-0.5%,0.3%,12.2%,·,·,1.9%,1.6%
CCCNC(=O)CN1C(=O)NC(CCSC)C1=O (configuration not stated),-6.6%,?,1.6%,3.6%[46.1 µM],·,·,-17.4%,-0.1%
CCOc1ccc2nc(NC(=O)c3nc(SCc4ccccc4F)ncc3Cl)sc2c1,-26.1%,3.1%[46.1 µM],·,8.9%[46.1 µM],-3.5%,-7.2%,·,·
CCOC(=O)c1[nH]c2ccccc2c1NC(=O)C(CC)CC,-13.0%,·,1.7%,·,-3.8%,-10.8%,-9.7%,2.7%
CC1Cc2ccccc2N1C(=O)Cc1cccs1 (configuration not stated),-4.8%,8.8%,-0.2%,0.4%,3.9%,12.9%,10.6%,-1.9%
COc1ccc(OC)c(NC(=O)C(=O)NCc2ccncc2)c1,-6.8%,-10.4%[46.1 µM],19.8%,22.8%,0.7%,7.1%,15.5%,-1.1%
NC(=O)c1ccsc1NC(=O)COC(=O)/C=C/c1ccccc1,?,7.6%,-0.6%,-15.6%[46.1 µM],·,·,12.3%,·
Cc1nc2sc(C(c3cccc(F)c3)N3CCOCC3)c(O)n2n1 (configuration not stated),19.5%,-24.8%,1.1%,-18.8%,-0.1%,-2.1%,-5.6%,-0.6%
CCOc1ccccc1NC(=O)Nc1cnccn1,3.1%,-9.5%,0.0%,7.0%[46.1 µM],·,·,26.8%,·
CCc1ccc(NC(=O)C(=O)NCCN2CCN(C(=O)c3ccco3)CC2)cc1,-7.7%,-19.7%,-14.6%,-13.3%,-19.3%,-0.8%,7.2%,-2.4%
O=C(c1cccnc1)N1CCN(S(=O)(=O)c2ccc(Cl)cc2)CC1,6.1%,-1.3%,14.7%,-25.9%,9.2%,-7.0%,103.4%,1.1%
COc1ccc2cc(C#N)c(SCC(=O)N3CCCC3)nc2c1,-18.2%,-7.7%,-3.2%,?,-6.0%,-4.8%,-14.9%,?
Cc1ccccc1NC(=S)N(Cc1ccccc1)Cc1cccnc1,8.8%,·,1.4%,2.6%[46.1 µM],·,·,-2.5%,-1.4%
Cc1sc2ncnc(NCc3cccs3)c2c1C,14.1µM*,-9.6%,-0.6%,-15.0%,-1.1%,-8.7%,-10.6%,-47.7%
CCOc1ccc2c(c1)-c1c(ssc1=S)C(C)(C)N2,·,?,-27.6%,-25.4%,-8.0%,-13.7%,-1.8%,5.5%
Cc1cccc(N2CCN(C(c3ccccc3)c3nnnn3CC3CCCO3)CC2)c1C (configuration not stated),-26.2%,?,-8.9%,?,-2.9%,?,-4.8%,-79.7%
CCCCN(C(=O)C(C)Oc1ccc(Br)cc1)c1c(N)n(Cc2ccccc2)c(=O)[nH]c1=O (configuration not stated),-18.8%,0.9%,8.4%,?,·,·,-16.2%,13.3%
# More records follow.
SMILES,2A StopGo,Lassa entry inh,SARS PLpro yeast,MARV entry inh,Cruzain inh Det,Cruzain inh noDet,RE007 growth inh,NS1 function inh
CCn1c(Cc2ccccc2)n[nH]c1=S,-5.1%,·,-0.8%,·,·,·,-10.1%,?
CCN(Cc1ccccc1)S(=O)(=O)c1ccc2c(c1)NC(=O)CS2,?,·,-4.5%,·,·,·,-0.7%,10.9%
CCc1ccccc1NC(=S)N(Cc1cccs1)C1CCCC1,-26.1%,-17.8%,4.7%,-11.7%[46.1 µM],·,·,-12.8%,·
Cc1ccc(C)c(NC(=O)CSc2nc3ccc(N4C(=O)c5ccccc5C4=O)cc3s2)c1,-22.0%,3.6%,-5.7%,-8.6%,-1.4%,?,6.4%,6.8%
CCC(=O)Nc1c(-c2ccc(C)cc2)nc2ccc(C)cn12,-10.7%,0.0%,-4.2%,14.8%,·,·,2.3%,4.4%
O=C(O)COc1ccc(C(=O)Cc2ccc3c(c2)OCCCO3)c(O)c1,·,?,9.6%,-0.9%,2.0%,-9.3%,5.6%,6.4%
Cc1scc(C(=O)NNC(=O)CCC(=O)O)c1C,-3.8%,2.0%,-1.3%,?,·,·,-19.9%,0.3%
CCc1c(-c2n[nH]c(=S)n2Cc2ccccc2)csc1C,?,3.6%,?,29.2%,-8.3%,-6.4%,3.9%,-39.2%
CCc1ccc(NC(=O)CSc2nc3c(sc4ccccc43)c(=O)n2CCCOC(C)C)cc1,0.0%,?,·,·,0.9%,15.5%,·,·
COc1ccc(C(=O)NCCn2cc(SCC(=O)NCC3CCCO3)c3ccccc32)cc1OC (configuration not stated),?,-1.8%,-2.1%,-35.7%,·,·,-22.3%,-10.2%
O=C(CNCc1ccc(Cl)cc1)Nc1cc(S(=O)(=O)N2CCCC2)ccc1Cl,?,-17.4%,·,?,·,·,7.8%,·
O=c1[nH]nc(SCCS(=O)(=O)c2ccc(F)cc2)n1-c1ccccc1C(F)(F)F,0.6%,?,-0.6%,?,·,·,6.2%,3.2%
Cn1nnnc1SCc1ccc(C(=O)Nc2ccccc2F)cc1,34.1%[activator],-9.4%,2.0%,5.9%,0.3%,7.8%,6.8%,-0.7%
